Screening results deposited in PubChem by National Center for Advancing Translational Sciences (NCATS).
HPGD inh: blocks human HPGD enzyme activity; P15428; 4.3% of 150,000 active; Potency, µM, for the others: at the highest dose activity change, negative = inhibition, hits mostly inhibitors; AID 894; purified HPGD, NADH fluorescence kinetic, PGE2 substrate; active = well fitted inhibition curve with a large enough effect (not every such curve was filed as active); inconclusive = small, poorly fitted or top-dose-only effect, or another doubt; inactive = no such curve, though single readings can be large or run the other way;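 also: top concentration of the series not given in the record; plate controls included wells without enzyme; inactives centre near -10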
Target sequence (P15428 whole entry, looked up): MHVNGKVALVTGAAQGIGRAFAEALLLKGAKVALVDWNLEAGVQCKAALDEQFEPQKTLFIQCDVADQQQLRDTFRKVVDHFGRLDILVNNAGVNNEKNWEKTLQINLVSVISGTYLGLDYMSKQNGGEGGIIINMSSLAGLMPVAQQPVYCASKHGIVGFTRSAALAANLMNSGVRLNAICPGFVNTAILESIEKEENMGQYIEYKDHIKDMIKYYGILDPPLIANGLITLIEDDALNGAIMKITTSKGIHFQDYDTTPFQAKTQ
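NADH formation kinetics: reaction with 30 uM PGE2 and 1 mM NAD+ (final), 20 nM enzyme, Tris-HCl pH 8 with Tween 20, after 15 min compound preincubation at room temperature. Fluorescence change, last versus first of five reads.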
* hit, by the source's call; ? = inconclusive; & = joins results of further samples. % is scaled to controls: 0 for no effect and ±100 for the full control effect; potency is read from the fitted curve at half-maximal effect.

HPGD inh	canonical_smiles
-8%	O=C(CCN1C(=O)c2ccccc2C1=O)NNC(=O)c1ccc(Cl)cc1Cl
-12%	CCCn1c(=O)c2ccccc2n2c(SCC(=O)N3CCc4ccccc4C3)nnc12
-8%	Cc1cc(C(=O)N/N=C/c2cn[nH]c2-c2ccccc2)cs1
-1%	c1ccc(-n2cnnc2SCc2cn3ccsc3n2)cc1
-18%	O=C(CSc1nnc(-c2ccco2)n1CC1CCCO1)NC1CCCC1 (stereo not drawn)
0%	CCOc1cc(C(C#N)N2CCOCC2)ccc1OC (stereo not drawn)
-7%	C=C(C)CSc1ncc(-c2cccc(C(F)(F)F)c2)cn1
-20%	O/N=C/CCn1c(=S)sc2ccccc21
?	Cc1cccc(OCCn2c(-c3ccco3)nc3ccccc32)c1
-17%	Cc1c(N=C2Nc3cccc4cccc2c34)c(=O)n(-c2ccccc2)n1C
-6%	CCN(Cc1cc(Cl)cc(C)c1O)Cc1c(O)ccc2ccccc12
-3%	Cc1ccccc1NC(=S)N1CCCC1
-13%	O=C(CNc1ccc2ccccc2c1)N/N=C/c1cc2ccccc2nc1Cl
-11%	CCN1CCN(Cc2ccc(NC(=O)Nc3ccccc3OC)cc2)CC1
-12%	C/C(CC(=O)Nc1ccc(Cl)c(C(F)(F)F)c1)=N\NC(=O)c1cc2ccccc2cc1O
?	O=C(CN(C1CCCCC1)S(=O)(=O)c1ccccc1)NCc1ccco1
-9%	O=C(NC1CCCCC1)c1ccc(COCC(F)(F)F)o1
4µM*	Cc1cc(-c2n[nH]c(=S)n2/N=C/C(Br)=C/c2ccccc2)n[nH]1
1%	CCN(CC)C(=O)Cn1c(=O)n(-c2ccccc2)c(=O)n1CC(=O)N(CC)CC
-7%	O=C(NC1=NCCS1)c1nc(-c2ccccc2)n(-c2ccccc2)n1
-25%	O=S(=O)(c1cccc(-c2cn3cc(Cl)ccc3n2)c1)N1CCOCC1
13µM*	COc1ccc(Cl)cc1NC(=S)NCc1ccco1
-30%	Cc1nc2scc(-c3cccs3)c2c(=O)n1CC(=O)O
?	CC(=O)Nc1c(OC(C)=O)ccc2c(C)cc(=O)oc12
-22%	O=C(NCc1ccco1)c1ccccc1Nc1ccc(F)cc1
-10%	O=C(c1ccncc1)N1CCC2(CCCN(c3ccncc3)C2)CC1
-6%	COc1ccc(OCC(=O)N2c3ccccc3CCc3ccccc32)cc1
-14%	CN(C)c1ccc(/C=c2\sc3n(c2=O)CCCN=3)cc1
-4%	CCOc1ccc(NC(=O)CSc2nnc(CCNC(=O)c3ccc(OC)cc3)n2C)cc1
-6%	CC(C)(C)CC(=O)NC(=S)NCCc1ccccc1
-20%	Cc1c(C=O)c2ccccn2c1C(=O)c1ccncc1
-1%	COc1ccc(CN2CCCCC2C)cc1OC (stereo not drawn)
?	COCCn1c(=O)c(-c2ccc(F)cc2)nc2cnc(Oc3cccc(Cl)c3)nc21
-15%	O=C(NCc1ccc(F)cc1)c1cc(S(=O)(=O)N2CCOCC2)ccc1F
-23%	COc1ccc(-n2c(=O)c(-c3cn(C)c4ccccc34)nc3cncnc32)cc1
-11%	O=C(Nc1cccn2ncnc12)C(Cl)Cl
-11%	CCOc1ccccc1-c1nc(-c2ccc(NC(=O)Cc3ccc(OC)cc3)cc2)no1
-12%	O=C(Nc1ccc(S(=O)(=O)N2CCCC2)cc1)c1ccc2c(=O)n3c(nc2c1)CCCCC3
20µM*	COc1cc(C(=O)Nc2nnc(C(C)(C)C)s2)c([N+](=O)[O-])cc1OC
-21%	CCCc1cc(-c2n[nH]c(C)c2-c2ccc(C(=O)OCC)o2)c(O)cc1O

Taken from above.
`O=C(Nc1ccc(S(=O)(=O)N2CCCC2)cc1)c1ccc2c(=O)n3c(nc2c1)CCCCC3` | HPGD inh: -12%
`O=C(NCc1ccc(F)cc1)c1cc(S(=O)(=O)N2CCOCC2)ccc1F` | HPGD inh: -15%
`COc1ccc(OCC(=O)N2c3ccccc3CCc3ccccc32)cc1` | HPGD inh: -6%

Reformatted in markdown: entries from further up
| SMILES | HPGD inh |
| --- | --- |
| COc1ccc(CN2CCCCC2C)cc1OC (stereo not drawn) | -1% |
| CCOc1ccc(NC(=O)CSc2nnc(CCNC(=O)c3ccc(OC)cc3)n2C)cc1 | -4% |
| COc1ccc(Cl)cc1NC(=S)NCc1ccco1 | 13µM* |
| O=C(c1ccncc1)N1CCC2(CCCN(c3ccncc3)C2)CC1 | -10% |
| CN(C)c1ccc(/C=c2\sc3n(c2=O)CCCN=3)cc1 | -14% |
| CC(=O)Nc1c(OC(C)=O)ccc2c(C)cc(=O)oc12 | ? |
| CCCc1cc(-c2n[nH]c(C)c2-c2ccc(C(=O)OCC)o2)c(O)cc1O | -21% |

Next entries follow:
HPGD inh	canonical_smiles
-5%	CN(C)Cc1c(C#N)c2ccccc2n1C
0%	CC(C)(C)NC(=O)CN(Cc1cccs1)C(=O)C1COc2ccccc2O1 (stereo not drawn)
-2%	Cn1c(=O)c2c(nc(CN3CCN(C(=O)c4ccco4)CC3)n2Cc2cccc(Cl)c2)n(C)c1=O
-12%	Cc1ccc2[nH]c(=O)c(CN(CCN3CCOCC3)C(=O)Nc3ccccc3F)cc2c1
-13%	COc1ccccc1CNc1ncncc1-c1ccccc1C
-4%	CS(=O)(=O)N1CCC(C(=O)NCCC2=CCCCC2)CC1
-23%	Cc1c(N/N=C(\C#N)C(=O)c2ccccc2)c(=O)n(-c2ccccc2)n1C
-7%	COc1ccc(NC(=O)C(=O)NNC(=O)c2cccs2)c(OC)c1
-10%	COC(=O)c1c(C)nc2ccccc2c1-c1ccccc1
0%	Cc1nn(Cc2ccc([N+](=O)[O-])cc2)c(=O)n1N(C)c1ncc(C(F)(F)F)cc1Cl
-24%	CCN(CC)C(=S)Sc1c(-c2ccccc2)c2cc(Cl)ccc2[nH]c1=O
?	Cc1ccsc1C1NC(=O)c2c(sc3c2CCCC3)N1 (stereo not drawn)
-11%	C[C@@H]1C(=O)NC2=Nc3cccc(Cl)c3CN21
-30%	COc1ccc(OCCNc2cc(N3CCCCC3)ccc2[N+](=O)[O-])cc1
-5%	c1ccc(CCNCc2ccco2)nc1
-9%	O=C1CC(c2ccc(Cl)cc2)CC(O)=C1C=NCCN1CCNCC1 (stereo not drawn)
-14%	C[n+]1ccc(/C=C/c2c[nH]c3ccccc23)cc1
-3%	O=C(COC(=O)c1c2c(nc3ccccc13)CCN(Cc1ccccc1)C2)Nc1c(F)cccc1F
?	Cc1ccc(-c2nn(-c3ccccc3)cc2/C=C(\C#N)C(=O)NCc2ccccc2)cc1
-8%	O=C(NCCC1=CCCCC1)C1CCCN(c2nc3ccccc3o2)C1 (stereo not drawn)
-12%	Cc1nn(-c2ccccc2)c2sc(C(=O)N(Cc3ccco3)C(C)C(=O)NC(C)(C)C)cc12 (stereo not drawn)
-12%	Cc1ccc(-c2csc(NC(=O)Cn3cnc4c3c(=O)n(C)c(=O)n4C)n2)cc1C
-5%	COc1ccc(C2CC(=O)C(C=NCCN3CCNCC3)=C(O)C2)cc1OC (stereo not drawn)
1%	CCCP(=O)(CC(=O)N(CC)CC)c1ccccc1 (stereo not drawn)
?	COc1cccc(NC(=O)c2cc(C(=O)Nc3cccc(OC)c3)n(C)n2)c1
2.5µM*	CCCCC(=O)Nc1sc(C(=O)N(CC)CC)c(C)c1C(=O)OC
-6%	CCC(C)NC(=O)CNC(=S)N(Cc1ccccc1)Cc1cccnc1 (stereo not drawn)
?	COc1ccc(C2CC(=O)c3cnc(Nc4cc(C)cc(C)c4)nc3C2)cc1 (stereo not drawn)
-25%	O=C1c2ccccc2C(=O)N1c1ncc(Cc2ccc(Cl)cc2)s1
-29%	Cc1ccc2cc(CCNC(=O)C3CCCC3)c(=O)[nH]c2c1
-8%	Cc1ccc2[nH]cc(C(=O)NCc3cccs3)c(=O)c2c1
-9%	O=C1CCC(C(=O)NC2(C(=O)NC3CCCCC3)CCCCC2)N1 (stereo not drawn)
-9%	CCN(CC)S(=O)(=O)N1CCC(C(=O)NCc2ccc(C)cc2)CC1
-12%	Cc1nc2nc(C)c(CCC(=O)NCc3ccc4c(c3)OCO4)c(C)n2n1
?	FC(F)(F)c1cccc(-c2cc3ccccc3nc2N2CCCC2)c1
-22%	COc1cc2c(cc1OC)CN(Cc1cc(=O)oc3cc(C)c(C)cc13)CC2
?	COc1ccc([N+](=O)[O-])cc1NS(=O)(=O)c1ccccc1
-3%	O=C(COc1ncnc2ccccc12)N1CCOCC1
-9%	CCc1c(C)[nH]c2c1C(=O)C(CN1CCOCC1)CC2 (stereo not drawn)
5%	CCC(Oc1ccccc1)C(=O)NCc1ccc(S(N)(=O)=O)cc1 (stereo not drawn)

No new results follow: two of the compounds above.
HPGD inh	canonical_smiles
-12%	Cc1nn(-c2ccccc2)c2sc(C(=O)N(Cc3ccco3)C(C)C(=O)NC(C)(C)C)cc12 (stereo not drawn)
-12%	Cc1ccc(-c2csc(NC(=O)Cn3cnc4c3c(=O)n(C)c(=O)n4C)n2)cc1C

Additional records follow:
HPGD inh	canonical_smiles
-7%	CCCN(CCC)S(=O)(=O)c1ccc(C(=O)Nc2nnc(-c3cccc(OC)c3)o2)cc1
5%&-3%&-8%&-2%	O=C1CC2(CCCC2)CC(=O)N1CCCCN1CCN(c2ncccn2)CC1
-7%	Cc1ccc(OC(=O)Cn2c(C(F)(F)F)nc3ccccc32)cc1
-6%	CCOC(=O)C1CCN(c2c([N+](=O)[O-])c(C(Cl)Cl)nn2-c2ccccc2)CC1
-25%	O=S(=O)(O)c1cc(O)c2c(N=Cc3ccccc3O)cc(S(=O)(=O)O)cc2c1
-9%	COCCCn1cc(C(=O)c2cc(OC)ccc2OCC(=O)Nc2cc(C)on2)cc(C#N)c1=O
?	Nc1c(C(=O)NCc2ccco2)c2nc3ccccc3nc2n1CCc1ccc(F)cc1
-5%	Cc1cc(C)nc(NC(=O)C(C)C)n1
-6%	COc1ccc2ccccc2c1/C=N\n1c(C)cc(C)c(C(N)=O)c1=O
-3%	O=C(O)[C@@H](O)[C@@H](O)[C@H](O)C(=O)CO
-19%	Cc1ccc(C)c(NC(=O)C2CCCN2S(=O)(=O)c2ccc3c(c2)n(C)c(=O)c(=O)n3C)c1 (stereo not drawn)
-7%	Cc1snc(SCC(=O)N/N=C(\N)COc2cccc(C(F)(F)F)c2)c1C#N
-10%	O=[N+]([O-])c1cc(/C=N/N2CCN(c3ccccc3)CC2)ccc1Cl
-7%	OC1CN=C2CCCc3c2n(c2ccc(Cl)cc32)C1 (stereo not drawn)
3%	NCCOc1ccccc1-c1ccccc1
-10%	COc1ccc(CCn2c(-c3cccc([N+](=O)[O-])c3)nc3nc4ccccc4nc32)cc1OC
-8%	CCOC(=O)N1CCN(S(=O)(=O)c2ccc(F)c(C(=O)Nc3ccc(C)c(Cl)c3)c2)CC1
-1%	Cc1nc2ccc(NC(=O)Nc3ccnc4cccnc34)cc2o1
-7%	CCCC(c1nnnn1Cc1ccc(OC)cc1)N1CCC(C(N)=O)CC1 (stereo not drawn)
-9%	CCn1cc(/C=N\NC(=O)c2cc(-c3ccccc3OC)nc3ccccc23)c(C)n1
-18%	COc1ccccc1NS(=O)(=O)c1ccc(C)c(NC(=O)c2ccc(S(=O)(=O)N3CCCCCC3)cc2)c1
-10%	CCOC(=O)C(=Nc1ccccc1)NO
-1%	COC1=C(OC)C(=O)C(C/C=C(\C)CC/C=C(\C)CC/C=C(\C)CC/C=C(/C)CC/C=C(\C)CC/C=C(\C)CC/C=C(\C)CC/C=C(\C)CC/C=C(\C)CCC=C(C)C)=C(C)C1=O
?	CCn1c(SCC(=O)N2CCOCC2)nc2oc3c(Cl)cc(Cl)cc3c(=O)c2c1=O
-10%	Cc1ccc(CNCC2CCCO2)o1 (stereo not drawn)
-14%	COc1ccc(-c2cn3c(C)c(C(=O)NC(C)C)sc3n2)cc1
-15%	CCOC(=O)c1ccc(NC(=S)N2CCSC2c2ccc(Br)cc2)cc1 (stereo not drawn)
-18%	CN(Cc1ccccc1)C(=O)NC1CCCCC1
-9%	O=C(c1sc2ccccc2c1Cl)N(Cc1cccs1)C1CCS(=O)(=O)C1 (stereo not drawn)
-6%	COc1ccccc1N1CCN(C2CCN(S(=O)(=O)c3ccc4ccccc4c3)CC2)CC1
?	COc1ccc(-c2cc(C(F)(F)F)nc(SCC(=O)NCCN3CCOCC3)n2)cc1OC
-8%	O=[N+]([O-])c1ccc(-c2nc(NCc3ccccc3)c3ccccc3n2)cc1
-18%	COc1nn(CC(=O)N2N=C(C(F)F)CC2(O)C(F)F)cc1[N+](=O)[O-] (stereo not drawn)
-12%	O=C(CN1C(=O)COc2ccccc21)N(Cc1ccccc1)Cc1ccccn1
?	COCCn1c(=NC(=O)/C=C/c2ccccc2)sc2cc(NC(C)=O)ccc21
-8%	O=C(c1ccc(F)cc1)N1CCCCC(S(=O)(=O)c2ccccc2)C1=O (stereo not drawn)
-1%	CC(C)OC(=O)CC12CN3CN(C1)CC(CC(=O)OC(C)C)(C3)C2=O
-14%	C=CCn1c(SCC(=O)NCCc2ccccc2)nnc1C(C)NC(=O)c1cccs1 (stereo not drawn)
-16%	COc1ccc(N2CC(O)=C(c3n(C)c4ccccc4[n+]3C)C2=N)cc1
-28%	FC(F)(F)c1cc(-c2ccccc2)nc(NC2CCCC2)n1
?	Brc1ccc(-c2nnc3sc(CN4CCC5(CC4)OCCO5)cn23)cc1
17%	Cc1cc(N)c2ccccc2[n+]1CCCCCCCCCCCCCC[n+]1c(C)cc(N)c2ccccc21
-18%	O=c1ccc(NS(=O)(=O)c2ccccc2)cn1Cc1ccc(Cl)c(Cl)c1
3%	COC(=O)C1=NN[C@H](C(=O)OC)[C@H]1c1ccccc1
2%	CCOc1cc(NC(=O)C2CC2)c(OCC)cc1NC(=O)CCn1nnc2ccccc21
-16%	CCCC(=O)NC(=S)Nc1ccccc1OC

A portion of the library; the hit share may differ from the screen's.
